# RanGTP-Imp inh: disruptors of Ran-importin-beta complex formation – biochemical, FRET, CFP-Ran, YFP-importin-beta, homogeneous, primary screen; cell-free CFP-Ran/YFP-importin-beta FRET ratio; inhibition, % (test concentration not listed); actives 1.1% (n = 300,000); AID 2216;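 active = most replicates above 15%; inconclusive = exactly half above 15%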;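 note: 0% = DMSO wells and 100% = Ran loaded with GDP instead of GTP; wells of about 40 µL received 100 nL stock; the first replicate is given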
# Beta apoptosis: beta cell apoptosis inhibition. protection from apoptosis, % (test concentration not listed). INS-1E cytokine-induced death, ATP luminescence, 48 h; percent of positive-control rescue, neutral wells zero. actives 0.8% (n = 300,000);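 active = all replicates at 75% or more, or half of them and the mean; inconclusive = half reach 75% but not the mean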;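 note: 0% = cytokine-treated negative control wells and 100% = positive control rescue; higher means more ATP so stronger rescue from cytokine killing; wells of about 40 µL received 100 nL stock; the first replicate is given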
# Vif TR-FRET: inhibitors of Vif binding to APOBEC3G peptide, primary screen, biochemical, TR-FRET, GST-Vif 1-94, biotin-A3G peptide, dose response retest (AID 1117319). TR-FRET GST-Vif / biotin-A3G peptide binding; higher % means a stronger effect; test concentration not given here; strong numbers were not always called active. one-dose inhibition, %; IC50 in µM for titrated hits. actives 0.57% (n = 260,000);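 active = above the screen mean plus three standard deviations and confirmed in dose response; inconclusive = results disagree or hit not tested in dose response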;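 note: Vif residues 1-94 fused to GST binding biotinylated APOBEC3G peptide 110-148; 0% = full assay without inhibitor and 100% = GST in place of GST-Vif; retest series ran down from 100 µM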
# A1 inh: inhibitors of the anti-apoptotic protein A1, read as caspase activation | caspase activation, % (test concentration not listed) | actives 0.066% (n = 330,000) | MEF A1-2A-BIM cells, Caspase-Glo 3/7 luminescence, 3 h; percent of clofoctol response, vehicle zero;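 active = over half of replicate activation scores above 10%, or exactly half above 10 with the replicate mean above 10; inconclusive = replicate mean below 10 yet half the replicates above 10; inactive = over half of replicates below 10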;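 note: wells of about 30 µL received 50 nL stock; many hits fall short of the cut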
# Calb FLC: C. albicans growth modulation with fluconazole | C. albicans CaCi-2 (fluconazole-resistant clinical isolate) + fluconazole, Alamar Blue growth, 48 h | growth inhibition, % (no concentration beside the values) | actives 0.57% (n = 300,000);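 active = most replicates above 75%; inconclusive = exactly half above 75%; inactive = most below 75%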;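 note: all wells also contain fluconazole at 8 µg/ml as a sub-toxic cotreatment; 0% = median of DMSO wells and 100% = median of geldanamycin control wells; wells of about 8 µL received 7.5 nL stock; the first replicate is given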
# T cruzi repl: T. cruzi replication inhibition; T. cruzi beta-gal in NIH3T3, luminescence, 90 h; inhibition, % (test concentration not listed); actives 1.4% (n = 300,000);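 active = mean inhibition across valid replicates above about 55%, limit read from the data; inconclusive = mean below that limit but half or more replicates reach it; inactive = mean below it, under half of replicates reach it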;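 note: signal also drops with host cell toxicity which is not excluded here; 0% = plate median of DMSO wells and 100% = zero luminescence signal; higher percent means less beta-gal luminescence so fewer parasites; stock transfer was 50 nL into about 50 µL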
# AF4-AF9 inh: inhibitors of human MLL-AF4/AF9 interaction; inhibition, % at 10 µM; AlphaScreen, biotin-AF4 peptide binding to FLAG-AF9; AID 651704; actives 0.47% (n = 350,000); P42568;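 active = every replicate reaching a set inhibition limit, whatever the replicate mean, cut at about 25% in these data; inconclusive = mean inhibition reaches that limit but some replicates miss it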;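 note: 0% = plate neutral control median and 100% = total signal loss; the record names both 10 and 1 µM as test concentration; the first replicate is given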
# LANA-H2A inh: blocks KSHV LANA binding to histone H2A/H2B; Q9QR71; cell-free LANA-H2A/H2B peptide, fluorescence polarization; inhibition, % (no concentration beside the values); actives 0.6% (n = 320,000); in the data active = inhibition mostly above about 10%, no sharp cut-off; inactive = mostly below about 6.7%;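 note: stock transfer was 7.5 nL into about 10 µL; 0% = median of vehicle wells and 100% = median of positive control wells; one replicate is shown; the record names a cut of 25% in any replicate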
# Target sequence (Q9QR71 whole entry, looked up): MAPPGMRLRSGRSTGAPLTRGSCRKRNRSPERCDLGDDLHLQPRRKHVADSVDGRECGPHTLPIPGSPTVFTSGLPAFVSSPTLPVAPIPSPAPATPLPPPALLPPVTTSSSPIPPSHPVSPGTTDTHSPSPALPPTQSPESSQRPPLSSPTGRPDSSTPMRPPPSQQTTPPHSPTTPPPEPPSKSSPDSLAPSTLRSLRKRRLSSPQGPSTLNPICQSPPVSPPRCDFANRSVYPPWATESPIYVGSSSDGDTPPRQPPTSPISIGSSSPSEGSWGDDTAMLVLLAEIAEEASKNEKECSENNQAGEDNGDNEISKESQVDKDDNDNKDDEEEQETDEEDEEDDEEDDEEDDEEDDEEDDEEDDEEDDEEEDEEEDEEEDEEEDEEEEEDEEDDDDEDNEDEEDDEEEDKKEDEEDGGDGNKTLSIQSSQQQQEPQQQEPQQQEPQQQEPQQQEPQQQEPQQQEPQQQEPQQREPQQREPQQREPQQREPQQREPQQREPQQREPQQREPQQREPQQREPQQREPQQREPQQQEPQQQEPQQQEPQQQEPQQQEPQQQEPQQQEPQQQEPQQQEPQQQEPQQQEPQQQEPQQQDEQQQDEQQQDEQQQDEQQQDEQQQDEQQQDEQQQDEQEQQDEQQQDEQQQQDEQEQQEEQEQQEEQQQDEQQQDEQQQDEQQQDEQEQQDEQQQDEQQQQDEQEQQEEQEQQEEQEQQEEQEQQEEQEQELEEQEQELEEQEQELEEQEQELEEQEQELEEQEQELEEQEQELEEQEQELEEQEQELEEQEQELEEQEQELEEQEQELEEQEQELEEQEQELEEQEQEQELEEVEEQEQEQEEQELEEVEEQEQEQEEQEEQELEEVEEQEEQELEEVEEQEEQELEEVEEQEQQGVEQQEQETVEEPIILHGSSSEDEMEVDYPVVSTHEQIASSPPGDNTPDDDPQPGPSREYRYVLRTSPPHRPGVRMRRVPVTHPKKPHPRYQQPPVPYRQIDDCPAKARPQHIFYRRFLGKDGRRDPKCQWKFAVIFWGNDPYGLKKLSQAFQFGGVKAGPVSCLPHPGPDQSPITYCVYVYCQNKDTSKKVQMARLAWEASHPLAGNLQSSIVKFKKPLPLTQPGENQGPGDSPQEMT
# Starred values were filed as active, the others as inactive; ? = inconclusive; / = not tested or not shown; & = joins results of further samples. Compounds were not picked by outcome; any-hit rate near 4.3%.
SMILES,RanGTP-Imp inh,Beta apoptosis,Vif TR-FRET,A1 inh,Calb FLC,T cruzi repl,AF4-AF9 inh,LANA-H2A inh
CCCCc1nc2cc(Cl)ccc2o1,4.0,-3,/,-0.3,-7,-6,-1.6,3.1
O=C(CN1C(=O)NC2(CCOc3ccccc32)C1=O)NCc1ccccc1 (stereo not drawn),/,-5,-2%,-0.8,/,/,-0.5,-5.0
COc1cccc2cc(C(=O)Oc3ccc(NC(C)=O)cc3)c(=O)oc12,2.9,-3,?,1.0,-4,12,/,5.8
CC1(C)Cc2nc(N3CCOCC3)c(C#N)cc2CO1,-0.8,-1,4%,-0.1,36,8,/,1.5
Cc1ccc(C(=O)N2CCCC(C(=O)Nc3cccc(-c4ccc(F)cc4)c3)C2)cn1 (stereo not drawn),-1.2,-2,/,0.1,-6,12,-0.1,-0.2
CCOC(=O)N1CCN(c2c(NCCc3ccc(OCC)c(OCC)c3)c(=O)c2=O)CC1,6.9,3,-4%&2%,-0.3,-35,-4,2.9,0.8
COc1ccc(C(=O)NC(Cc2ccc(OC(=O)c3ccc(OC)cc3)cc2)C(=O)O)cc1 (stereo not drawn),3.2,4,/,0.1,-7,-6,-2.5,-5.6
O=C(COC(=O)c1cc([N+](=O)[O-])ccc1N1CCOCC1)c1ccc(F)cc1,/,-2,-10%,1.5,/,/,9.8,-3.2
CCCCN(C(=O)c1ccc(S(=O)(=O)N2CCCCC2)cc1)C1CCS(=O)(=O)C1 (stereo not drawn),4.0,/,-4%,/,24,1,-2.3,/
CCN(CC)C(=O)COc1ccc2c(-c3ccc(OC)cc3)cc(=O)oc2c1,-1.9,4,/,-0.1,72,21,-1.7,-3.7
CCOC(=O)CN1C(=O)C(O)(CC(=O)c2ccco2)c2ccccc21 (stereo not drawn),-2.6,-4,2%,0.1,-24,-13,/,-1.8
COc1cc(/C=C/C(=O)O)cc(S(=O)(=O)N(CC(C)C)CC(C)C)c1OC,-4.2,0,-3%,-0.5,1,16,-0.2,-3.6
CC(/C=C1\SC(=Nc2cccnc2)NC1=O)=C\c1ccccc1,-1.8,16,22%,-0.4,3,-17,1.9,-6.3
COc1ccccc1S(=O)(=O)Cc1ccc(C(=O)N2CCN(c3ccc(C)cc3)C(C)C2)o1 (stereo not drawn),3.5,7,16%,-0.3,-1,-3,8.0,4.5
Cc1ccc(S(=O)(=O)N2CCCN(S(=O)(=O)c3ccc4c(c3)OCCO4)CC2)cc1,4.0,-5,2%&-6%,1.7,3,10,/,1.5
CC1(C)CC(=O)c2sc(NC(=O)c3ccco3)nc2C1,1.9,9,5%,-2.1,8,-2,1.1,3.7
O=C(Nc1ccc2c(c1)C(=O)N(CC1CCCO1)C2=O)c1cccc(Br)c1 (stereo not drawn),-0.1,4,6%,0.7,15,-9,/,1.9
COC(=O)COc1ccc(S(=O)(=O)Nc2ccc(C(N)=O)cc2)cc1Cl,0.5,0,5%,1.3,?,-25,2.4,2.2
CCn1c(C)nnc1SCC(=O)Nc1cccc(Cl)c1,-1.1,/,/,-0.1,-4,-9,4.6,-3.5
COc1cc(OC)cc(C(=O)N[C@H](C(=O)OCC(=O)Nc2ccc(F)c(F)c2)C(C)C)c1,6.5,-7,/,0.6,-4,1,-0.5,-3.2
Cc1nnc(Nc2ccc(C(=O)N3CCOCC3)cc2)c2ccccc12,6.7,8,32%,0.9,-6,1,/,-1.8
O=C(c1sc2cc([N+](=O)[O-])ccc2c1Cl)N1CCOCC1,2.4,-3,/,-0.6,-4,-5,3.0,-0.9
O=C(Nc1cc(-c2nn(CC(=O)N3CCCCC3)c(=O)c3ccccc23)ccc1N1CCOCC1)c1ccc(Cl)cc1,-3.2,8,7%,1.0,13,11,/,-2.9
COC(=O)c1[nH]c2ccccc2c1NC(=O)CCN1CCSCC1,2.3,-5,6%,0.8,-3,-12,/,2.3
COc1ccc(Nc2ncnc3c2cnn3Cc2ccccc2)cc1OC,2.6,15,3%,-0.2,17,-30,/,-5.7

# Look-ups from the list:
# Reading for CCCCc1nc2cc(Cl)ccc2o1 under LANA-H2A inh: 3.1
# Reading for COc1cccc2cc(C(=O)Oc3ccc(NC(C)=O)cc3)c(=O)oc12 under A1 inh: 1.0
# Reading for O=C(c1sc2cc([N+](=O)[O-])ccc2c1Cl)N1CCOCC1 under RanGTP-Imp inh: 2.4

# Other compounds follow:
SMILES,RanGTP-Imp inh,Beta apoptosis,Vif TR-FRET,A1 inh,Calb FLC,T cruzi repl,AF4-AF9 inh,LANA-H2A inh
N=C1/C(=C/c2cccs2)C(=O)N=C2SN=C(SCc3ccccc3)N12,7.8,4,4%,-0.6,19,-4,/,-1.0
O=C(CN1CCN(C(=O)c2ccco2)CC1)Nc1ccccc1-c1ccccc1,-1.6,9,17%,1.0,3,13,/,2.3
CCC(=O)Oc1ccc(NC(=O)CSCc2ccccc2)cc1,-3.2,10,7%,-0.2,0,-23,0.2,-6.4
CCCN1C(=O)S/C(=C\c2ccc(N3CCOCC3)o2)C1=O,-18,-9,22%,0.8,38,28,-6.7,-29
O=C(COC(=O)c1cc(=O)[nH]c2ccccc12)Nc1ccc(F)cc1F,/,-4,4%,-0.2,/,/,2.9,-16
COCCNC(=O)c1ccccc1N(Cc1ccccc1)S(=O)(=O)c1ccc(C)cc1,-0.6,2,-6%,-0.5,3,17,-0.9,-2.3
COc1ccc(N2CCN(CCCNC(=O)C(=O)c3c(C)[nH]c4ccccc34)CC2)cc1,2.4,-3,/,-0.3,-19,11,18,-2.5
CCSc1nc2c(c(=O)[nH]c(=O)n2C)n1Cc1ccc(Cl)cc1,/,14,5%,-0.3,/,/,/,-1.4
O=C(CCN1CCN(CCO)CC1)Nc1ccc(C2CCCC2)cc1,9.5,-4,-5%,-1.8,-3,-13,4.3,-1.8
CC(C)[C@H](N)C(=O)NC[C@H](CC(=O)NC[C@H]1CC[C@H](C(=O)O)CC1)c1ccc(Cl)cc1,?,-5,-3%,0.1,-6,-6,-0.5,1.4
CCN1C(=O)[C@H]2[C@@H](c3ccc(-c4ccc(Cl)c(Cl)c4)cc3)N[C@@](Cc3ccccc3)(C(=O)OC)[C@H]2C1=O,4.9,3,/,-0.2,6,-8,3.7,1.3
CC(C)NC(=O)COC(=O)/C=C/c1ccco1,-2.0,-1,21%,0.0,-13,8,-27,-3.1
Cc1ccc2cc(COC(=O)c3ccco3)c(=O)[nH]c2c1,-0.6,-7,-10%,0.1,-4,-8,/,-0.7
COC(=O)C(CCSC)NS(=O)(=O)c1ccc(Cl)cc1 (stereo not drawn),-1.7,1,-6%,-0.3,-3,-16,/,-2.0
CCOCc1nnc(NC(=O)c2cccs2)s1,2.7,-1,2%,-0.1,3,-13,/,-2.8
Cc1cc2nc(-c3ccco3)cc(C(F)(F)F)n2n1,-1.8,-5,3%,-1.8,4,-18,-0.4,2.8
CCn1c2ccccc2c2cc(NC(=O)COC(=O)C3CCC(=O)N3)ccc21 (stereo not drawn),3.6,-5,5%,-0.4,19,-20,/,6.4
O=c1cc(N2CCN(c3cccc(Cl)c3)CC2)[nH]c(=O)n1C1CCCCC1,4.5,89*,-6%,0.0,2,16,/,-6.2
CCOC(=O)C1CCCN(C(=O)CNS(=O)(=O)c2ccc(Br)s2)C1 (stereo not drawn),3.6,/,18%,-0.8,2,-6,4.7,2.9
COc1ccc(-c2nc(CS(=O)(=O)CC(=O)Nc3cccc(C(C)=O)c3)c(C)o2)cc1,-3.4,-3,-3%,-0.7,-16,1,0.1,-3.0
Cn1c(N)c(C(=O)COC(=O)c2ccco2)c(=O)n(C)c1=O,-1.2,0,8%,0.3,9,-3,/,-2.6
CCOC(=O)C1(Cc2ccccc2)CCN(Cc2ccc3c(c2)OCCO3)CC1,-2.6,17,/,0.7,-7,7,2.4,2.2
CCOC(=O)C(=O)Nc1cc(C(=O)OC)cc(C(=O)OC)c1,16*,-2,0%,-0.1,0,0,-3.6,0.4
O=C(c1cc(-c2ccccn2)nc2ccc(Br)cc12)N1CCc2ccccc2C1,?,/,-16%,/,-24,0,/,/
COc1cc(/C=C2/SC(=Nc3ccc(O)cc3)NC2=O)cc(OC)c1O,1.4,/,3%,0.0,41,-13,-1.6,-4.5
# Following part
SMILES,RanGTP-Imp inh,Beta apoptosis,Vif TR-FRET,A1 inh,Calb FLC,T cruzi repl,AF4-AF9 inh,LANA-H2A inh
Cc1cc2c(c(=O)n1CCN(C)C)C(c1ccccc1Br)C(C#N)=C(N)O2 (stereo not drawn),0.6,4,5%,0.2,-3,7,/,0.2
COc1ccc(C(=O)NCCc2nnc3ccc(SCC(=O)Nc4ccccc4)nn23)cc1,3.8,3,/,2.1,-1,-10,0.9,0.8
COC(=O)Cc1csc(NC(=O)CSc2nncn2C)n1,/,1,/,-0.4,/,/,1.6,0.5
CCCCCc1ccc(OCCOCCn2c[n+](C)c3ccccc32)c(CCCCC)c1,3.8,/,11%,/,104*,39,/,/
O=C(NNC(=O)c1ccc(Cl)nc1)c1ccncc1,/,3,/,0.3,/,/,-2.3,-7.6
CC(=O)O[C@H]1CC[C@]2(C)[C@H]3CC=C4[C@@H]5[C@@H](C)[C@H](C)CC[C@]5(C(=O)O)CC[C@@]4(C)[C@]3(C)CC[C@H]2C1(C)C,-0.5,15,10%,?,4,-2,/,1.6
COc1ccc2c(c1)C=C([C@@H]1C[C@H]3CN(c4ccccc4)C(=O)[C@]34CCCN14)CO2,4.1,-2,9%,-0.4,44,16,7.8,-2.0
CC1CCN(S(=O)(=O)c2ccc([N+](=O)[O-])cc2)CC1,-1.4,1,/,1.2,-19,-2,1.2,4.9
CCNc1nc(ON=C(C)C)nc(N(C)C)n1,-7.4,3,-8%,1.2,37,-8,-3.0,2.7
CCOc1ccc(S(=O)(=O)N2CCC(C(=O)NCC3CCCO3)CC2)cc1 (stereo not drawn),-3.5,-9,/,0.4,-7,-4,-2.7,2.8
COc1ccc(-c2nc3ccccc3c(=O)n2O)cc1,-2.1,-4,1%,-1.6,-5,-16,6.9,3.8
Cc1cc(C)n(-c2nc3ccccc3c(=O)n2OCC#N)n1,-2.7,84*,/,-7.1,81*,59*,0.0,-1.0
CCN(CC)c1ccc(/C=N/N2CCN(c3ccccc3OC)CC2)cc1,-0.8,4,-1%,-0.3,-23,13,30*,-2.3
C=CCNC(=O)/C(C#N)=C/c1cc(Br)ccc1OC,2.0,-6,4%,0.3,-19,-13,-14,1.9
CCOC(=O)C(CC)Sc1nc2c(c(=O)[nH]c(=O)n2C)n1CCc1ccccc1 (stereo not drawn),-0.5,-1,-2%,-1.0,0,6,/,-8.2
